Choline anaer gr = inhibitors of anaerobic choline-dependent gram-negative bacterial growth. calls only. Gram-negative bacterium anaerobic choline minimal medium, absorbance growth; stronger effect = lower value; many inactives read as strong as hits in the columns shown. 55,000 tested, 0.2% active. AID 1963822;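 active = growth z-score on choline under -2 at 7 or 20 h with little or no fall on glycerol, limits in tiers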;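 note: stock transfer was 300 nL into about 50 µL; the organism is E. coli; final concentration not given here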
Choline anaer gr early = further read-out of Choline anaer gr, marked with its call; z-score; measured here: choline growth z-score, timepoint 1;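 score of optical density at 7 h as mean of two plates; lower means less growth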
The depositor's hits bear a star; i = inactive; & = joins results of further samples. A portion of the library; the hit share may differ from the screen's.

| Structure | Choline anaer gr | Choline anaer gr early |
| --- | --- | --- |
| Cc1cc(NCC2CCCO2)n2nc(C(F)(F)F)c(-c3ccc(Cl)cc3)c2n1 (stereo unspecified) | i | -1.42 |
| NC(N)=NCCN1CCCCCCC1 | i | 0.23 |
| CCC1CCCCN1S(=O)(=O)c1cc(-c2nnc(C)o2)co1 (stereo unspecified) | i | -0.28 |
| Cc1ccc(-c2cn3nc(C)sc3n2)cc1 | i | -0.29 |
| Cc1nn(-c2ccc(F)cc2)c2sc(C(=O)Nc3cccc(F)c3)cc12 | i | 1.41 |
| CCOc1ccccc1N1CCN(C(=O)C2CCN(c3nccc4c(C)nn(CC)c34)CC2)CC1 | i | 0.37 |
| Cc1c(C(=O)NCc2ccccc2)oc2ccc(S(=O)(=O)N3CCC(C)CC3)cc12 | i | 0.81 |
| CCNc1nc(C(N)=O)c(NC(=O)c2cccc(Br)c2)s1 | i | -1.8 |
| O=C(NCCc1cnc[nH]1)c1ccc(Cn2c(SCc3ccc(F)cc3)nc3cccnc32)cc1 | i | -0.94 |
| O=C(NC1CC1)c1cn2c(n1)CCCC2 | i | -0.05 |
| CCCCC[C@H](O)/C=C/[C@H]1C(=O)C[C@H](O)[C@@H]1C/C=C\CCCC(=O)NCCO | i | -0.7 |
| CCCCc1ncc(/C=C(\Cc2cccs2)C(=O)O)n1Cc1ccc(C(=O)O)cc1 | i | -0.28&0.33 |
| CC(=O)Nc1cccnc1-c1ccc(C(=O)Nc2ccc(Br)cc2)cc1 | i | -1.57 |
| CCOC(=O)c1cc2c(C)n(CC)c(C)c2ccc1=O | i | -0.52 |
| Cc1ccc(CNC(=O)C2(C)CCCN(C(=O)c3ccc(Cl)cc3)C2)cc1 (stereo unspecified) | i | 0.06 |
| O=S(=O)(Nc1nc2n(n1)C(c1ccc(F)cc1)C=C(c1ccc(Cl)cc1)N2)c1ccc(Cl)cc1 (stereo unspecified) | i | 0.64 |
| O=c1c2ccccc2n2c(SCc3ccccc3)nnc2n1CCc1ccccc1 | i | -0.2 |
| CN1[C@@H](CC(=O)c2ccccc2)CCC[C@H]1C[C@H](O)c1ccccc1 | i | -0.28 |
| CN(c1ccccc1)S(=O)(=O)c1ccc(N2C(=O)CCS2(=O)=O)cc1 | i | -1.27 |
| CC(=O)Nc1ccc(N2C(=O)c3cc(C)nn3CC2(C)C(=O)NCc2ccc(F)cc2)cc1 (stereo unspecified) | i | -0.52 |
| COc1cccc(N2CCN(C(=O)c3cc(S(=O)(=O)N4CCCCC4)cn3C)CC2)c1 | i | -1.52 |
| O=c1cc(CNc2ccc(Br)cc2)nc2nc(NCc3ccccc3)[nH]n12 | i | 0.1 |
| COc1ccc(Nc2nc(C)c3nnn(-c4ccc(OC)c(Cl)c4)c3n2)cc1Cl | i | 0.84 |
| Cc1cc(-c2ccc(C)c(S(=O)(=O)CCC(=O)N3CCc4ccccc4C3)c2)on1 | i | -0.48 |

The closing 5 entries of the section above are carried over, then new ones follow:
| Structure | Choline anaer gr | Choline anaer gr early |
| --- | --- | --- |
| CC(=O)Nc1ccc(N2C(=O)c3cc(C)nn3CC2(C)C(=O)NCc2ccc(F)cc2)cc1 (stereo unspecified) | i | -0.52 |
| COc1cccc(N2CCN(C(=O)c3cc(S(=O)(=O)N4CCCCC4)cn3C)CC2)c1 | i | -1.52 |
| O=c1cc(CNc2ccc(Br)cc2)nc2nc(NCc3ccccc3)[nH]n12 | i | 0.1 |
| COc1ccc(Nc2nc(C)c3nnn(-c4ccc(OC)c(Cl)c4)c3n2)cc1Cl | i | 0.84 |
| Cc1cc(-c2ccc(C)c(S(=O)(=O)CCC(=O)N3CCc4ccccc4C3)c2)on1 | i | -0.48 |
| CCOc1cccc(NC(=O)c2cc3c([nH]c2=O)CC(C)(C)CC3=O)c1 | i | -2.32 |
| CC(C)CNC(=O)c1ccc2c(=O)n(CC(C)C)c3nn(CC(=O)NC(C)C)c(=O)n3c2c1 | i | 0.93 |
| COc1cccc(C(=O)Nc2noc3ccccc23)c1 | i | -0.24 |
| CC(C)n1cnc2nc(CSc3ccccc3NC(=O)CCC3CCCC3)cc(=O)n21 | i | 0.31 |
| CC(=O)N1CCc2cc(S(=O)(=O)CCC(=O)Nc3c(C)cccc3C)ccc21 | i | -0.32 |
| Cc1ccc(C)c(C2=NC3(CCN(C(C)C)CC3)NC(c3cc(Cl)ccc3O)C2)c1 (stereo unspecified) | i | -0.65 |
| CCOC(=O)c1ccccc1NC(=O)c1nn(-c2ccc(C)cc2)c(=O)n(C)c1=O | i | 1.98 |
| CCOC(=O)c1cnc2c(OC)cccc2c1Nc1cc(OC)ccc1OC | i | 1.32 |
| Cc1nn(C)c(C)c1CCN(C)C(=O)Nc1ccccc1Cl | i | -0.68 |
| CCCc1ccc(S(=O)(=O)N2CCN(Cc3nc4ccccc4o3)CC2)cc1 | i | -0.62 |
| Cc1ccc(NC(=O)N2CCC3(CC2)CC(=O)c2ccccc2O3)cc1Cl | i | 0.02 |
| CCOC(=O)C1=C(C)NC(=O)NC1c1cn(-c2ccccc2)nc1-c1ccc(OC)c(Br)c1 (stereo unspecified) | i | -0.3 |
| COc1ccc2c(c1)c(C(=O)CNc1nccs1)c(C)n2C | i | 0.88 |
| O=S(=O)(c1ccccc1F)N1CCN(c2ncnc3c2nnn3-c2ccccc2)CC1 | i | 0.86 |
| Cc1cc(C)c(S(=O)(=O)N2CCn3cccc3C2c2ccccc2)c(C)c1 (stereo unspecified) | i | 0.08 |
| Cc1ccc2c(c1)c(-n1cccc1)c1n2CC(C)(C(=O)NC2CCCC2)N(CC2CCCO2)C1=O (stereo unspecified) | i | 0.06 |
| CC(C)CN(CC(C)C)C(=O)c1cc(NC(=O)c2ccccc2Cl)cnc1N1CCNCC1 | i | 0.69 |
| CC/C=C\C/C=C\C/C=C\C/C=C\C/C=C\CCCCCC(=O)O | i | -0.16 |
| Cc1ccc(CSc2nc(-c3ccc(C)cc3)cc(N3CCOCC3)n2)cc1 | i | 0.22 |
| Cc1cccc(-c2noc(CCCn3c(=O)[nH]c4cc5c(cc4c3=O)OCO5)n2)c1 | i | -0.84 |
| CCC(CO)NCCNC(CC)CO (stereo unspecified) | i | 0.65 |
| CC(CCc1ccc(O)cc1)NCCc1ccc(O)c(O)c1 (stereo unspecified) | i | 0.92&0.24&0.19&1.01 |
| Cc1nc2ccccc2n(CC(=O)Nc2ccc(Cl)cc2)c1=O | i | 0.04 |
| Cc1nnc(-c2sccc2C)o1 | i | -2.33 |
| COc1cc(NS(=O)(=O)c2ccc3c(c2)-c2oncc2CO3)cc(OC)c1OC | i | -0.54 |
| CC(=O)Nc1ccc(S(=O)(=O)N2CCN(C(=O)c3nsc4ccc(C)cc34)CC2)cc1 | i | -0.96 |
| Cc1ccccc1C(=O)N(Cc1ccc(N(C)C)cc1)CC1CCCO1 (stereo unspecified) | i | 0.89 |
| CCc1ccc(N2CC(c3nnc(NC(=O)c4c(-c5ccccc5)noc4C)s3)CC2=O)cc1 (stereo unspecified) | i | -0.64 |
| Cc1cc(C)n2nc(CCc3ccccc3)nc2n1 | i | -0.03 |
| CCOc1ccc(NC(=O)c2sc3ncnc(N4CCN(c5ccccn5)CC4)c3c2C)cc1 | i | 0.48 |
| Cc1cccc(CSc2nc3cccnc3n2Cc2ccccc2C)c1 | i | -0.15 |
| COc1ccccc1-c1cc(C(=O)NCc2ccccc2)c2c(-c3ccccc3)[nH]nc2n1 | i | 0.67 |
| CC1CN=C(c2cccn2Cc2ccc(F)cc2)O1 (stereo unspecified) | i | 0.33 |
| CCC(=O)n1nc(C)c(S(=O)(=O)N2CCOCC2)c1C | i | 0.1 |
| COc1ccccc1NC(=O)C(C)Sc1nnc2ccc3ccccc3n12 (stereo unspecified) | i | -0.47 |
| Cc1nn(C)c(C)c1CN(C)C(=O)c1cnn2c(C(F)F)cc(-c3ccccc3)nc12 | i | -0.49 |
| CC1CCC(NC(=O)C2(C)Cn3c(cc4occc43)C(=O)N2CCCN(C)Cc2ccccc2)CC1 (stereo unspecified) | i | 0.21 |
| CCSc1nn(CC(=O)Nc2ccc(C)c(Cl)c2)c(N)c1S(=O)(=O)c1ccc(OC)cc1 | i | 0.68 |
| CCOc1ccc(NC(=O)N2CC(=O)N(CC(=O)Nc3cccc(Cl)c3)c3ccccc32)cc1 | i | -0.31 |
| Cc1cn2c(=O)cc(COc3ccccc3NC(=O)C(C)Oc3ccccc3)nc2s1 (stereo unspecified) | i | 0.8 |
| O=C(NCC1CCCO1)N1CCN(Cc2nc3ccccc3o2)CC1 (stereo unspecified) | i | -0.17 |
| O=C(NCCO)c1nc(-c2ccccc2)n(-c2ccccc2)n1 | i | 0.16 |
| COc1ccc(OC)c(-c2nnc3n(Cc4ccccc4)c(=O)c4ccccc4n23)c1 | i | -0.54 |
| CCC(C)NC(=O)C1CCCN(S(=O)(=O)N(CC)CC)C1 (stereo unspecified) | i | -0.13 |
| O=C(Cn1ccc2c(SCc3ccc(F)cc3)nccc21)Nc1ccc2c(c1)OCCO2 | i | -0.29 |
| COc1ccc(-c2nn3c(-c4ccc(N(C)C)cc4)nnc3s2)cc1 | i | -0.95 |
| COc1ccc(-c2nc(CN3CCN(S(C)(=O)=O)CC3)c(C)o2)cc1 | i | -0.58 |
| CCCS(=O)(=O)N1CC(=O)N(c2ccc(C)c(F)c2)C(C)(C(=O)NC2CCCCC2)C1 (stereo unspecified) | i | 0.25 |
| Cc1cccc(C(=O)Nc2ccc(N3CCCC3)c(NC(=O)Nc3ccc(Cl)cc3)c2)c1 | i | 0.89 |
| COc1cc(OC)cc(-c2noc(CCCn3c(=O)[nH]c4cc5c(cc4c3=O)OCO5)n2)c1 | i | -0.72 |
| CCOc1ccc(CCNC(=O)c2sc(-c3cccn3CC)nc2C)cc1OCC | i | 1.2 |
| COc1c(C=O)c(O)cc2c1C(=O)c1ccccc1C2=O | i | 0.08 |
| CC1CCN(C(=O)CSc2nnc(-c3ccccc3F)o2)CC1 | i | 0.33 |
| CCOC(=O)c1sc(NC(=O)c2cc(CC)on2)c(C(=O)OCC)c1C | i | 0.33 |
| COc1cc2c(cc1OC)-c1cc3ccc(OC)c(OC)c3c[n+]1CC2 | i | -0.3 |
| O=C(Nc1cnc2oc(-c3ccccc3)nn2c1=O)c1ccccc1 | i | 0.85 |
| CCN(CCN(C)C)c1ncc(NS(=O)(=O)CC)cc1C(=O)O | i | -0.2 |
| O=C(Nc1cccc(Br)c1)Nc1cccc(-c2nnc(-c3ccccc3)o2)c1 | i | 0.71 |
| O=C(Nc1ccc2c(c1)OCCO2)C1CCCN(c2nc3cccnc3s2)C1 (stereo unspecified) | i | 0.67 |
| O=C(Nc1ccc(F)cc1F)c1cncc(NS(=O)(=O)c2ccc(Br)cc2)c1 | i | -0.13 |

(next part)
| Structure | Choline anaer gr | Choline anaer gr early |
| --- | --- | --- |
| CCn1c(=O)c2sccc2n2c(CCC(=O)NCCc3ccc(S(N)(=O)=O)cc3)nnc12 | i | 2.91 |
| CCc1noc2nc(C)nc(Nc3ccc(F)cc3)c12 | i | -0.58 |
| CC(C)N1CC(c2nc3ccccc3n2C)CC1=O (stereo unspecified) | i | -0.62 |
| O=C1C(=O)N(C2CCN(S(=O)(=O)c3ccc(Cl)cc3)CC2)CCN1Cc1ccc(F)cc1 | i | 0.87 |
| CCCc1cc(Sc2ccccc2NC(=O)Nc2ccc(F)c(Cl)c2)n2ncnc2n1 | i | 0.88 |
| O=C(NC1CCCCC1)c1cccc(N2CCCS2(=O)=O)c1 | i | -0.48 |
| Cc1ccccc1-c1nn2c(=O)cc(N3CCN(C(=O)Nc4cccc(Cl)c4)CC3)nc2s1 | i | -0.02 |
| CC(C)Cn1c(=O)c2sccc2n2c(CCC(=O)NC3CCC(C)CC3)nnc12 (stereo unspecified) | i | -0.24 |
| CCCCOc1ccc(C2CC(=O)Nc3c2cnn3-c2ccc3nnc(C)n3n2)cc1OC (stereo unspecified) | i | -0.64 |
| O=C(NCCN1CCc2ccccc2C1)Nc1ccc(F)cc1F | i | -0.38 |
| Cn1c(=O)c2sccc2n2c(CCC(=O)NCCC3=CCCCC3)nnc12 | i | 0 |
| O=C(CCc1nc(-c2cc3ccccc3[nH]c2=O)no1)N1CCCC1 | i | -0.32 |

Brought forward from above: 2 entries, followed by the next part.
| Structure | Choline anaer gr | Choline anaer gr early |
| --- | --- | --- |
| Cn1c(=O)c2sccc2n2c(CCC(=O)NCCC3=CCCCC3)nnc12 | i | 0 |
| O=C(CCc1nc(-c2cc3ccccc3[nH]c2=O)no1)N1CCCC1 | i | -0.32 |
| Cc1cccc(N2CCN(C(=O)CN3C(=O)CSc4ncccc43)CC2C)c1 (stereo unspecified) | i | 0.15 |
| COC(=O)c1ccc(NC(=O)c2sc3nc(C)cc(=O)n3c2C(=O)Nc2ccc(C)c(C)c2)cc1 | i | 0.07 |
| Cc1ccc(NS(=O)(=O)c2cc(-c3cc(C(F)(F)F)on3)cs2)c(Br)c1 | i | 0.42 |
| Cc1ccc(-c2ccc3nn(CC(=O)Nc4ccc(C)cc4Br)c(=O)n3n2)cc1 | i | 1 |
| Cc1nc(-c2cc(S(=O)(=O)N3CCN(c4ccc(Cl)cc4)CC3)c(C)s2)sc1C | i | 0.38 |
| CC1CCN(Cc2nnc(-c3cn(CC(=O)N4CCc5ccccc54)c4ccccc34)o2)CC1 | i | -0.25 |
| Cc1ccc(-c2ccc3nnc(C)n3n2)cc1S(=O)(=O)N1CCOCC1 | i | -0.19 |
| O=C(Cn1ccn2nc(-c3ccc4c(c3)OCO4)cc2c1=O)NCCc1ccccc1 | i | -0.25 |
| CCN(CC)CCNC(=O)c1c(O)c2cccc3c2n(c1=O)CC3 | i | -0.12 |
| COc1ccc(-c2cc(OCC(=O)Nc3ccc4c(c3)OCCO4)c3ccccc3n2)cc1 | i | 0.45 |
| Cc1c(C(=O)O)sc2ncnc(Nc3ccc(F)c(Cl)c3)c12 | i | 0.81 |
| COc1ccc(NC(=O)NCCn2cnc3cc(C(=O)N4CCCC4)ccc32)cc1 | i | -0.23 |
| O=C(c1ccc2ccnc(N3CCN(c4ccccc4)CC3)c2c1)N1CCN(c2ccccn2)CC1 | i | 0.52 |
| CCc1ccccc1NC(=O)C1CCN(S(=O)(=O)c2ccc3c(c2)CC(C)N3C(C)=O)CC1 (stereo unspecified) | i | 1.5 |

Source: PubChem BioAssay (ICCB-Longwood Screening Facility, Harvard Medical School)
